# UCH37 DUB inh: inhibitors of human UCH37 deubiquitinase, primary screen, biochemical, Ub-AMC cleavage, fluorescence. Ubiquitin carboxyl-terminal hydrolase isozyme L5 (Homo sapiens), Q9Y5K5. purified proteasome/UCH37. inhibition, % (concentration not given with the values). 330,000 tested, 0.33% active. AID 588478, 2011;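 active = mean of two replicates above 20%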;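 note: 0% = compound-free wells with enzyme and 100% = wells lacking proteasome; stock transfer was 100 nL into about 20 µL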
# Target sequence (Q9Y5K5 whole entry, looked up): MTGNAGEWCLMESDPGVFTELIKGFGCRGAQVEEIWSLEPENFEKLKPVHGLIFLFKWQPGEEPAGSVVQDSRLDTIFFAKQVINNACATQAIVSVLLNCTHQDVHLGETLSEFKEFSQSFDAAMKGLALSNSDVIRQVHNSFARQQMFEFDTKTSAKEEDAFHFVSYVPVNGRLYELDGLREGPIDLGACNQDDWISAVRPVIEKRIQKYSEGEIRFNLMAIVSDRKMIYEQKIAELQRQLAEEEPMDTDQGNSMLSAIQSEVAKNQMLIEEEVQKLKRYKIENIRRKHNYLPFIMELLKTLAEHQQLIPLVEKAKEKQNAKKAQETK
#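 System: Proteasome-associated human UCH37 deubiquitinase; Input: 0.15 nM proteasome in added enzyme buffer; Also added: Ub-AMC substrate from 1 µM stock; Incubation: 30 min compound-proteasome preincubation then 25 min substrate reaction, room temperature; Detection: fluorescence, ex 355 nm, em 460 nm; Read-out: % inhibition of Ub-AMC cleavage fluorescence; Benchmarks: no-proteasome and no-compound wells.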
# B2AR ag: beta2AR agonists driving receptor internalization, primary screen, cell-based, FAP fluorogen, flow cytometry | Beta-2 adrenergic receptor (Homo sapiens), P07550 | Am2.2-beta2AR cells; reference of the scale not given here | response, % (test concentration not listed) | 340,000 tested, 0.43% active;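 active = response above a set limit, near 3 SD of response in nonfluorescent compounds, cut at about 42% in these data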;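 note: stock transfer was 100 nL into about 11 µL; a reference agonist was the positive control; negative values mostly stem from fluorescent compounds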
# HNF4A DNA FP: change in binding of human HNF4A to DNA, primary screen, biochemical, fluorescence polarization, FITC-DNA. 1 h. Hepatocyte nuclear factor 4-alpha (Homo sapiens), P41235. AID 1224865, 2016. activity change, % at 10 µM. 360,000 tested, 0.3% active; in the data active = activity change above about 30%, passing the limit was not always enough;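 note: controls were the assay level and a saturating level of protein; the project sought stronger binding though the title names inhibitors; some compounds called inactive have numbers as strong as hits; positive values seem to mean higher polarization but the record does not say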
# rRNA inh HTS: reduced GFP signal of wild-type E. coli, primary screen, bacterial rRNA inhibitor project, GFP/RFP fluorescence, OD600, single point; E. coli WT GFP vs humanized-ribosome RFP mutants, 24 h; hits give low values; DMSO median 0, no signal -100; AID 720706, 2013; GFP signal change (wild-type ribosome), % (concentration not given with the values); 350,000 tested, 1.6% active;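 active = significant combined selectivity score with lowered wild-type GFP, culture density cut under 30%, mutant RFP and density less affected; inactive = any of these conditions unmet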; note: one replicate is shown; some compounds called inactive have numbers as strong as hits
# Ecoli growth: E. coli growth inhibition, primary screen, OD600. AID 1053175, 2014. Escherichia coli growth, 23 h; hits give low values. 330,000 tested, 0.21% active. OD600 absorbance (concentration not given with the values);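 active = OD600 absorbance below the run mean of sample wells minus 3.6 SD, in any replicate, cut at about 0.56 in these data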;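 note: stock transfer was 300 nL into about 60 µL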
# ALR H2O2 inh: inhibitors of human ALR sulfhydryl oxidase, primary screen, biochemical, H2O2 detection, HRP-luminol luminescence, single point; FAD-linked sulfhydryl oxidase ALR (Homo sapiens), P55789; purified ALR, DTT oxidation; inhibition, % (no concentration beside the values); 290,000 tested, 3.8% active; AID 485317, 2010;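 active = mean and each replicate at 75% or more; inconclusive = only one of the two met; inactive = neither met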;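 note: stock transfer was 7.5 nL into about 7.5 µL; 0% = neutral wells and 100% = wells with inactivated enzyme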
# Target sequence (P55789 whole entry, looked up): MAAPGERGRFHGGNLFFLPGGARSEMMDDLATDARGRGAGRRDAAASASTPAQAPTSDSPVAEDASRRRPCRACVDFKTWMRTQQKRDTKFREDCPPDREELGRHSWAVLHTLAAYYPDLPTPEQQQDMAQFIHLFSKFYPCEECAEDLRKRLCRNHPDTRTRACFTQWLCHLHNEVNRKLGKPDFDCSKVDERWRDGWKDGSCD
# FGF22 binding: binders of human FGF22 protein, primary screen, FGF22 synaptogenesis inhibitor project, biophysical, thermal shift, single point; Fibroblast growth factor 22 (Homo sapiens), Q9HCT0; recombinant FGF22 thermal shift, SYPRO orange fluorescence; percent of sucrose octasulfate shift, DMSO zero; calls only at 9.99 µM; 340,000 tested, 1.5% active;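 active = melting point raised past a set limit in the mean and every replicate; inconclusive = no clear call; three in four hits are not shown here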
# Target sequence (Q9HCT0 whole entry, looked up): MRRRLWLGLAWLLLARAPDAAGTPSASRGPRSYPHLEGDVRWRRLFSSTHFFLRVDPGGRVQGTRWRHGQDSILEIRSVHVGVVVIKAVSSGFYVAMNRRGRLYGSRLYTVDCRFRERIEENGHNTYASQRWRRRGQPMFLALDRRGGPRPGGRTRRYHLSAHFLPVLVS
# rRNA inh HTS OD600: second read-out of rRNA inh HTS, no call of its own (marks repeat the call); OD600 change, %; measured here: OD600 growth;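 optical density of the mix in the first replicate; 0 = DMSO median and -100 = no signal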
# rRNA inh HTS RFP: also measured in rRNA inh HTS; calls as there; RFP signal change, %; measured here: RFP humanized mutant strains;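 first replicate; 0 = DMSO median and -100 = no signal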
# * hit, by the source's call; i = inactive; ? = inconclusive; · = no result given; + = active, no number. An excerpt; the hit share may differ from the screen's.
SMILES,UCH37 DUB inh,B2AR ag,HNF4A DNA FP,rRNA inh HTS,rRNA inh HTS OD600,rRNA inh HTS RFP,Ecoli growth,ALR H2O2 inh,FGF22 binding
Cc1nc(SCc2ccc(C(=O)O)cc2)c2c(C)c(C)sc2n1,1.7,-12,3.6,-9,-2,-1.0,0.63,10,i
CCN1C(=O)c2ccccc2S(=O)c2ccc(C(=O)N3CCCC3)cc21 (configuration not stated),2.4,-5,1.4,1,5,2.0,0.79,-21,i
Cc1oc(C(C)(C)C)cc1C(=O)Nc1ccc2c(c1)OCO2,2.2,-8,-2.7,-9,7,-1.9,0.65,2,i
COc1ccc(CCNC(=O)C2CCCN(Cc3nc(-c4cccc(Cl)c4)oc3C)C2)cc1OC (configuration not stated),3.1,-9,-0.9,-1,5,2.5,0.65,-2,·
COc1ccc(-n2nc(C(=O)NCC(=O)N3CCC(C)CC3)c3ccccc3c2=O)cc1Cl,-6.4,-13,-2.8,18,-7,12,0.7,·,i
CCOC(=O)c1sc(NC(=O)C(CC)OC(=O)C(CC(C)C)NC(=O)c2ccccc2)nc1C (configuration not stated),0.5,0,-1.8,·,·,·,0.74,-8,·
Cc1nc2c(OCc3cccc(Cl)c3)cccn2c1N(C)Cc1cccs1,·,·,0.2,-57,-76,-16,·,·,i
NC(=O)CSc1nnc(-c2cccs2)n1Cc1ccco1,3.5,-4,-1.8,3,2,3.9,0.67,-2,i
Cc1cccc(/C=C2\CS/C(=C\c3cccc(C)c3)C2=O)c1,7.0,6,1.6,·,·,·,0.72,6,·
CC(=NC1CCCCC1)c1ccc(O)cc1O,·,·,-2.0,-40,-52,-6.8,·,·,i
CCOc1ccc(OCC(O)CN2CCc3ccccc3C2)cc1 (configuration not stated),0.5,-1,-0.4,5,1,-0.5,0.66,·,i
COc1ccc(NC(=O)c2ccc(OC(=S)N(C)c3ccc(OC)cc3)cc2)cc1,3.3,-3,0.8,·,·,·,0.74,15,·
COc1cccc(CN2CC(C(=O)NCCc3ccc(C)o3)CCC2=O)c1 (configuration not stated),2.4,-2,-1.1,13,10,1.6,0.7,21,i
O=C(NCc1ccco1)C(c1ccc(F)cc1)N(Cc1cccnc1)C(=O)Cn1nnc2ccccc21 (configuration not stated),1.6,2,1.2,·,·,·,0.72,-4,·
COc1cccc(-c2cn(C[C@H]3CC[C@@H]([C@@H]4CC[C@H](Cn5cc(-c6cccc(OC)c6)nn5)O4)O3)nn2)c1,3.1,-7,-0.6,-25,-20,7.6,·,-1,i
COc1ccc(C(=O)NCCc2nnc3ccc(SCC(=O)Nc4ccccc4)nn23)cc1,3.4,-13,-2.5,-1,-1,-2.3,0.69,-18,i
CCOc1cc(/C=C2/C(=N)N3C=CSC3=NC2=O)ccc1OCCCOc1ccccc1C,-209,4,0.5,·,·,·,0.68,-7,i
Cc1cc(C)n(-c2nncc(-c3ccccc3)n2)n1,-2.2,-14,0.4,·,·,·,0.77,4,·
Cn1cc(-c2cnc3c(NC=O)cc(-c4cccc(C(F)(F)F)c4)cn23)cn1,·,·,1.1,0,-4,-1.6,·,·,i
Cc1ccc(C(C)NC(=O)c2cccnc2)cc1 (configuration not stated),2.0,1,0.9,12,16,3.1,0.7,-8,i
COc1cccc(NS(=O)(=O)c2ccc3[nH]cc(C(=O)NCCN4CCOCC4)c(=O)c3c2)c1,-0.6,0,1.5,·,·,·,0.75,0,·
COc1cccc(N2CCN(c3ncnc4c3[nH]c3ccc(F)cc34)CC2C)c1 (configuration not stated),-2.2,41,-0.4,·,·,·,0.68,7,·
CN1CCN(c2ccc(C(CC(N)=O)NC(=O)Cc3cccc4ccccc34)cc2[N+](=O)[O-])CC1 (configuration not stated),2.5,-9,3.2,8,1,-3.7,0.7,7,i
O=C(CS(=O)(=O)c1ccc(F)cc1)Nc1nnc(-c2ccccc2Cl)o1,1.1,-1,-3.2,-23,-19,-1.0,0.68,5,i
Cc1ccccc1Nc1nc(N)nc(-c2oc3ccccc3c2C)n1,1.6,15,-2.5,-36*,-19*,-5.8*,0.71,2,i
CCOc1ccc(NC(=S)Nc2ccc(OC(F)(F)F)cc2)cc1,4.7,-1,-1.9,·,·,·,0.71,0,·
Cn1nc(C(=O)NNC(=O)c2ccccc2Br)c2ccccc2c1=O,0.0,-3,-1.0,1,6,-1.1,0.62,·,i
COc1ccc(C(=O)NC2CCCc3c2cnn3-c2cccc(C)c2C)c(OC)n1 (configuration not stated),1.7,10,2.2,-32,-58,-1.6,0.68,27,i
Cc1cc(C)cc(N2CN=C3SCC(=O)N3C2)c1,4.0,-2,3.6,·,·,·,0.71,-1,·
CCN(Cc1ccccc1)C(=O)CCNS(=O)(=O)c1cc(Br)cnc1N,-5.4,-2,-2.6,-7,-10,0.2,0.66,-12,i
Cc1ccc(C)c(NC(=O)COC(=O)c2cc3ccccc3oc2=O)c1,-13,-5,-5.9,7,10,-1.6,0.64,3,i
CCOc1ccc2nc(NC(=O)CN3CCC(n4nnc5cc(F)ccc54)CC3)sc2c1,-1.6,23,-3.1,·,·,·,0.67,-6,·
CCOc1c(Cl)cc(CNc2ccc(S(N)(=O)=O)cc2)cc1OC,-1.0,4,5.4,·,·,·,0.73,-23,·
COc1ccc(N2CCN(C(=O)Cc3nn(C)c(=O)c4ccccc34)CC2)cc1,0.7,-2,-0.6,·,·,·,0.68,?,·
c1ccc2c(-n3cccn3)cccc2c1,-5.0,0,-2.3,·,·,·,0.73,4,·
COc1ccc(N/C=C(\C#N)c2ccc(OCCCF)cc2)cc1,4.3,0,5.8,-10,-7,7.4,0.69,-17,·
O=c1c2sccc2[nH]c(=S)n1-c1ccccc1,4.5,-4,-1.9,5,2,-5.4,0.64,3,i
Cc1ccc2nc(C)cc(C(=O)N3CCCC(CO)(Cc4ccccc4C)C3)c2c1 (configuration not stated),0.5,1,2.7,-16,-18,-1.1,0.72,0,i
CC1CC(Nc2ccccc2)c2ccccc2N1C(=O)c1cccnc1 (configuration not stated),1.2,-2,-3.4,·,·,·,0.65,100*,·
Cn1c(=O)c2c(nc(N3CCCCCC3)n2CC(O)COc2ccccc2)n(C)c1=O (configuration not stated),-0.5,-28,1.8,·,·,·,0.71,5,·
C=CCNC(=S)Nc1ccc2cn[nH]c2c1,0.3,7,-2.8,12,-5,-5.2,0.66,-10,i
Cc1ccc(NC(=O)COC(=O)c2ccc(-n3cnnn3)cc2)c(Br)c1,1.8,-2,3.4,5,8,-2.0,0.65,1,i
CC(Sc1ccccc1)C(=O)N1CCN(S(=O)(=O)c2ccccc2)CC1 (configuration not stated),3.0,-7,-3.0,7,-4,-1.5,0.68,-1,i
COc1ccc(OC)c(NC(=O)CSc2n[nH]c(-c3cccnc3)n2)c1,-0.2,4,3.1,1,-6,2.2,0.66,-4,i
O=C1CN(C(=O)c2cc3ccccc3oc2=O)C(c2ccc(F)cc2)c2cc(F)ccc2N1 (configuration not stated),6.1,-14,-1.4,-3,-8,2.6,0.7,-4,i
COc1ccc(-n2ccnc2SCC(=O)Nc2ccccc2)cc1,4.7,-5,-4.2,·,·,·,0.72,-9,·
COc1ccccc1N1CCN(S(=O)(=O)Cc2ccccc2Cl)CC1,3.9,-3,2.6,·,·,·,0.7,44,·
CCOCC(=O)Nc1ccc([N+](=O)[O-])cc1C,2.0,5,1.5,17,16,-0.8,0.69,-5,i
CCc1ccc(NC(=O)COc2coc(CN3CCN(c4ccccc4)CC3)cc2=O)cc1,0.6,-2,2.4,2,7,-1.7,0.68,·,+
CCC(=O)N1CCN(c2nc(-c3ccc(Cl)cc3)cs2)CC1,3.4,·,-0.1,·,·,·,0.73,4,·
C/C(=N\NC(=O)c1c([N+](=O)[O-])c(C)nn1C)c1ccc(NC(=O)C2CCCC2)cc1,·,26,-2.7,-7,3,5.5,·,3,i
Cc1ccc(NC(=O)CSCC(=O)N2CCOCC2)cc1,0.4,11,-4.7,·,·,·,0.71,-1,·
N#Cc1ccc(CN2CCN(CC(=O)NCCc3ccc(Cl)cc3Cl)CC2)cc1,4.6,-12,0.9,-7,-18,7.1,0.67,-3,i
CN(Cc1ccccc1)C(=O)CSc1nc2c(c(C(F)(F)F)n1)CCc1ccccc1-2,1.5,-3,4.1,·,·,·,0.7,1,·
CCOC(=O)c1ccc(NC(=O)CN2C(=O)CSCC2=O)cc1,1.3,6,3.8,4,-1,-5.0,0.68,·,i
CCCN(C(=O)CCSc1ccc(F)cc1)c1c(N)n(Cc2ccccc2)c(=O)[nH]c1=O,2.5,-5,-0.1,8,8,1.7,0.7,1,i
c1coc(-c2cc(C3CCNCC3)[nH]n2)c1,4.4,-3,-0.1,0,5,3.4,0.67,-29,i
Cc1cccc(NC2=NC(=S)N(CC#N)C23CCCCC3)c1,1.7,-3,-2.4,·,·,·,0.73,·,·
Oc1ccc(/C=N/NC2=NCCCCC2)cc1,·,-8,-1.5,·,·,·,·,99*,·
CCN(C(=O)CCc1nc(-c2ccc(OC)cc2)no1)c1cc(OC)ccc1OC,2.3,-3,-1.1,·,·,·,0.74,-4,·

# Continued; it opens with the three that closed the last part.
SMILES,UCH37 DUB inh,B2AR ag,HNF4A DNA FP,rRNA inh HTS,rRNA inh HTS OD600,rRNA inh HTS RFP,Ecoli growth,ALR H2O2 inh,FGF22 binding
Cc1cccc(NC2=NC(=S)N(CC#N)C23CCCCC3)c1,1.7,-3,-2.4,·,·,·,0.73,·,·
Oc1ccc(/C=N/NC2=NCCCCC2)cc1,·,-8,-1.5,·,·,·,·,99*,·
CCN(C(=O)CCc1nc(-c2ccc(OC)cc2)no1)c1cc(OC)ccc1OC,2.3,-3,-1.1,·,·,·,0.74,-4,·
Cc1cc(Nc2cccc(F)c2)n2nc(C)nc2n1,3.2,7,-0.2,4,0,-1.7,0.69,·,i
CC(C)(C)n1ncc2c(=O)n(CC(=O)NC3CCCCC3)cnc21,2.7,-6,-0.7,·,·,·,0.72,-6,·
ClC(Cl)(Cl)c1nc2ccccc2n2nncc12,·,-7,3.0,-24,-38,-6.0,·,-25,i
O=C(NC(=S)N1CCN(Cc2ccc3c(c2)OCO3)CC1)c1cccc(Br)c1,-1.0,5,-2.4,-49,-76,-15,0.62,-11,i
O=C(Cn1cc(C(F)(F)F)ccc1=O)Nc1cc(S(=O)(=O)N2CCOCC2)ccc1Cl,-0.2,-3,3.0,5,0,1.5,0.72,14,i
CC1CN(CC(=O)Nc2cccc(C(=O)Nc3cccc(C(F)(F)F)c3)c2)CC(C)O1 (configuration not stated),6.7,4,0.8,·,·,·,0.69,1,·
CCCCSc1nc2c([nH]1)c(=O)n(C)c(=S)n2C,·,-2,6.0,3,13,-2.9,·,·,i
Cc1cc(Cn2nnc(-c3ccc(Br)cc3)n2)cc(C)c1O,3.4,2,0.8,1,-22,-15,0.71,·,i

# From PubChem
